High-throughput results: PubChem BioAssay, National Center for Advancing Translational Sciences (NCATS)
VACV Venus inh: qHTS for Stage-Specific Inhibitors of Vaccinia Orthopoxvirus: Venus Reporter Primary qHTS. Vaccinia virus Venus reporter expression, fluorescence. Potency, µM (titrated, usually from 36.5 µM), without a hit: at the highest dose activity change, negative = inhibition, hits mostly inhibitors. 330,000 tested, 0.46% active. AID 720580, 2013; active means well fitted inhibition curve with a large enough effect; inconclusive means small, poorly fitted or top-dose-only effect; inactive means no such curve, though single readings can be large or run the other way; tested in A549 cells; note: nearly all actives have a fitted effect of over 30% in size; inactives centre near -10
VACV mCherry inh: qHTS for Stage-Specific Inhibitors of Vaccinia Orthopoxvirus: mCherry Reporter Primary qHTS. Vaccinia virus mCherry reporter infection, fluorescence; about a quarter of the inactives have no number. Potency, µM (titrated, usually from 36.5 µM), inactives show at the highest dose activity change, negative = inhibition, usual class: inhibitors. 310,000 tested, 0.63% active. AID 720579, 2013; active = well fitted inhibition curve with a large enough effect; inconclusive = small, poorly fitted or top-dose-only effect; inactive = no such curve, though single readings can be large or run the other way; tested in A549 cells; note: nearly all actives have a fitted effect of over 35% in size; inactives centre near -10
Starred values were filed as active, the others as inactive; i = inactive; u = inconclusive; x = no result given; & = joins results of further samples; [ ] = dose if it differs, or a comment. % is set by controls: 0 for no effect and ±100 for the full control effect; potency is the fitted concentration of half-maximal effect.

Preview (four entries):
Fields – VACV Venus inh | VACV mCherry inh
COc1ccc(CCNC(=O)CSc2nc(O)c(CCC(C)C)c(=O)[nH]2)cc1OC
  -11.0% | -29.8%
O=C(Nc1nc(-c2cccs2)cs1)c1ccc(S(=O)(=O)N2CCCCC2)cc1
  u | u
CCCN(C(=O)CSCc1ccccc1C)c1c(N)n(Cc2ccccc2)c(=O)[nH]c1=O
  -16.6% | -20.8%
C/C(=N/NC(=O)COc1cc(C)ccc1C(C)C)C(=O)O
  -7.9% | u

The whole of this part, repeating the preview:
Fields – VACV Venus inh | VACV mCherry inh
COc1ccc(CCNC(=O)CSc2nc(O)c(CCC(C)C)c(=O)[nH]2)cc1OC
  -11.0% | -29.8%
O=C(Nc1nc(-c2cccs2)cs1)c1ccc(S(=O)(=O)N2CCCCC2)cc1
  u | u
CCCN(C(=O)CSCc1ccccc1C)c1c(N)n(Cc2ccccc2)c(=O)[nH]c1=O
  -16.6% | -20.8%
C/C(=N/NC(=O)COc1cc(C)ccc1C(C)C)C(=O)O
  -7.9% | u
CCOC(=O)C1CCCN(CCSc2ccc(C)cc2)C1 (configuration not stated)
  -14.2% | i
COc1cc(C2c3c(-c4cc(C)ccc4O)n[nH]c3C(=O)N2CCCO)ccc1OCCC(C)C (configuration not stated)
  u | u
CN1CCN(CCn2c(=S)[nH]c3ccccc3c2=O)CC1
  -6.9% | -11.3%
Cc1c(C(=O)NCC2CCCO2)sc2nc(-c3ccc(F)cc3)cn12 (configuration not stated)
  u | -0.2%
Cc1cc(=O)c2cc(C(=O)Nc3ccc(C)c(C)c3)ccc2[nH]1
  -6.1% | -8.3%
CCOC(=O)c1ccccc1OCc1cc(/C=N/NC(=O)c2ccncc2)ccc1OC
  -15.8% | -11.7%
COc1ccccc1S(=O)(=O)N(C)C[C@@H]1OCc2cnnn2CCCC(=O)N([C@@H](C)CO)C[C@H]1C
  -1.3% | -14.6%
C=CCn1c(C(CC)CC)nc2ccccc21
  -15.7% | -1.2%
Cc1sc(-c2c(C#N)c(N)nc3c2CCCCCC3)cc1[N+](=O)[O-]
  -2.7% | -20.8%
O=C(CN1CCCCC1)Nc1nc(-c2ccccc2)cs1
  -5.6% | i
CCOC(=O)Cc1csc(/C(=N/O)C(N)=O)n1
  -6.3% | i
CCOc1ccc(OCC)c(NC(=O)C2CCN(c3nn4c(=O)cc(C)nc4s3)CC2)c1
  u | x
COc1cc(OC)cc(C2=Cc3ccc(OC)cc3C(CC(C)=O)N2c2ccc(-c3cncnc3)cc2)c1 (configuration not stated)
  -11.7% | -1.5%
Cc1ccc2c(c1)C(=O)C(=O)N2Cc1ccc(OCCC(C)C)cc1
  -7.8% | -16.2%
CC(c1ccon1)N(C)Cc1c(C(=O)N(C)Cc2ccccc2)nc2ccccn12 (configuration not stated)
  -5.2% | -9.7%
CCCCCCOc1ccc(/C=N/NC(=O)C2CC2)cc1
  -4.2% | -12.4%
c1ccc(CCn2nnnc2CN2CCN(C3CCCC3)CC2)cc1
  -20.0% | -23.2%
COc1ccccc1N1CCN(C(=O)Oc2ccccc2)CC1
  -12.5% | -9.0%
C=CCNC(=O)/C(=C\c1ccc(OC)cc1)NC(=O)c1ccc([N+](=O)[O-])cc1
  4.0% | -11.6%
C[C@@H](NC(=O)c1nc[nH]c1C(=O)NCc1ccc(CNC(=O)OC(C)(C)C)cc1)c1ccccc1
  -17.8% | -2.7%
COc1ccc(C2/C=C\CN(S(=O)(=O)c3ccc(C)cc3)[C@H](Cc3ccccc3)C(=O)N2Cc2ccc(F)cc2)cc1 (some centres not stated)
  -7.1% | -0.5%
CCOc1cc(C(=O)N[C@@H](C)C(=O)N2CCC3(CC2)NCCc2[nH]cnc23)cc(OCC)c1OCC
  -2.9% | i
CC(=O)c1cccc(NC(=O)C2C3C=CC(C4CC34)C2C(=O)O)c1 (configuration not stated)
  9.0% | x
CN(C)CCNC(=O)/C(=C/c1ccc(-c2cccc([N+](=O)[O-])c2)o1)NC(=O)c1ccccc1
  -13.9% | -5.4%
CCCc1cc(NCCCN(C)C)n2c(nc3ccccc32)c1C#N
  -17.9% | -18.8%
COC(=O)c1sc(N2CCN(Cc3ccccc3)CC2)nc1N
  -26.1% | -11.3%
O=C(Cn1c(=O)c2c3c(sc2n(Cc2ccccc2)c1=O)CCCC3)NCCO
  -15.5% | i
O=C(NCc1ccco1)c1ccc(NC(=O)C2COc3ccccc3O2)cc1 (configuration not stated)
  -19.3% | x
COc1cc(CC(=O)OCC(=O)Nc2ncc(Cl)cc2Cl)cc(OC)c1OC
  12.6% | x
CC(=O)Nc1ccc(NC=C(C#N)C#N)cc1
  -5.4% | i
CCC(=O)NCC(c1ccc2c(c1)OCO2)N1CCN(c2ccccc2)CC1 (configuration not stated)
  7.1% | -11.3%
CC(=O)/C(=N\Nc1ccccc1Cl)Sc1nnc(-c2ccccc2)n1-c1ccccc1
  0.0% | -6.7%
CC(C)Oc1ccc(C(=O)N2CC(=O)Nc3ccc(F)cc3C2c2ccc(F)cc2)cc1 (configuration not stated)
  -12.2% | -11.5%
CS(=O)(=O)c1ccc(Nc2nc(C(N)Cc3ccc(Cl)cc3)cs2)cc1 (configuration not stated)
  u | -27.4%
Cc1cccc(-c2nc(-c3ccc4c(c3)[nH]c(=O)n4C)no2)c1
  -2.6% | -5.5%
CC(OC(=O)Cc1n[nH]c(=O)c2ccccc12)C(=O)Nc1cccc([N+](=O)[O-])c1 (configuration not stated)
  -6.6% | -10.6%
CSCCC(NS(=O)(=O)c1cccs1)C(=O)NCc1ccc(C)cc1 (configuration not stated)
  -6.2% | i
CN(C(=O)CSc1nnc(Nc2ccccc2)s1)C1CCS(=O)(=O)C1 (configuration not stated)
  -3.5% | i
COc1ccc(CC(=O)Nc2ccc(/C(C)=N/NC(=O)c3cccc([N+](=O)[O-])c3)cc2)cc1
  -3.3% | -11.0%
CC1CCCN(Cc2nc3c(c(=O)n(C)c(=O)n3C)n2CCc2ccccc2)C1 (configuration not stated)
  -5.3% | -8.8%
COC(=O)c1ccccc1NC(=O)CNc1cc(OC)c(OC)cc1C
  -2.7% | -10.4%
Cc1cccc(C(=O)Nc2nnc(S(=O)(=O)N3CCC(C)CC3)s2)c1
  -4.8%&-1.9% | -6.0%
CCC(C)NC(=O)c1cccc(NC(=O)c2nsc3ccccc23)c1 (configuration not stated)
  1.2% | -6.4%
CN1C(=O)C(O)(CC(=O)/C=C\c2ccc3c(c2)OCO3)c2ccccc21 (configuration not stated)
  -11.2% | u
COc1ccc(C(O)c2nc(-c3ccc(Cl)cc3)cs2)cc1 (configuration not stated)
  -8.3% | i
C(=N\N1CCN(c2ccccn2)CC1)/c1ccco1
  -10.5% | i
Cc1cc(C)nc(N/N=C/c2ccco2)n1
  1.6% | -12.6%
CC[n+]1c(C)n(C)c2cc(S(=O)(=O)N(C)C)ccc21
  -18.7% | -3.7%
O=C(O)/C(=C\c1c(C(=O)O)[nH]c2cc(Cl)cc(Cl)c12)c1ccccc1
  -9.3% | -18.0%
COc1ccc(OC)c(CCNC(=O)c2nn(C)c3c2CSc2ccccc2-3)c1
  -12.1% | -9.3%
COc1ccc(C(SCC(NC(=O)OCc2ccccc2)C(=O)O)c2ccc(OC)cc2)cc1 (configuration not stated)
  -15.1% | i
COc1cc(C2(C)SCCCS2)cc(OC)c1OC
  -0.3% | -12.8%
O=C(CCCOc1ccccc1)Nc1ccncc1
  -12.9% | -10.7%[1.46 µM]
Cc1ccc(NC(=O)CN(C)CC(=O)Nc2ccc(N3CCOCC3)cc2)c(C)c1
  -10.5% | -19.9%
COc1ccc(OC)c(NC(=O)c2ccc(-c3nc(COc4ccccc4)c(C)o3)cc2)c1
  -15.3% | -21.9%
COc1ccc(CN2CCOCCOCCN(Cc3ccc(OC)cc3)CCOCCOCC2)cc1
  -15.9% | -4.1%

Continued.
Fields – VACV Venus inh | VACV mCherry inh
CCOC(=O)N1CCC(NC(=O)Cn2cccc2C(=O)c2ccccc2C)CC1
  -10.2% | x
COc1ccc(N(C(=O)COc2cccc(C)c2)S(=O)(=O)c2ccc(C)cc2)cc1
  -17.3% | -2.8%
Nc1nc(SCC(=O)c2cc3ccccc3o2)n[nH]1
  -2.2% | i
Cc1cc(C)c(S(=O)(=O)Nc2cccc(C(F)(F)F)c2)c(C)c1
  -20.2% | 16.4%
CCc1ccc(S(=O)(=O)N(C(=O)c2ccncc2)c2ccc(OC(=O)c3ccncc3)cc2)cc1
  -13.5% | -21.2%
CC1(CCl)CN1S(=O)(=O)c1ccccc1 (configuration not stated)
  -27.7% | u
CCOC(=O)C1=C(COC(=O)/C=C/c2ccc(Cl)cc2)NC(=O)NC1C (configuration not stated)
  -8.6% | -7.7%
Cc1ccc(S(N)(=O)=O)cc1NC(=O)/C=C/c1ccc2c(c1)OCO2
  -15.5% | -7.6%
CCOC(=O)c1c(C)[nH]c(C)c1C(=O)COc1ncnc2ccccc12
  -11.5% | -15.0%
CCCc1nn(-c2ccccc2)c2c1C(c1cccs1)C(C#N)=C(N)O2 (configuration not stated)
  -9.1% | -18.3%
O=C(N/N=C/c1cccc(OC(=O)N2CCOCC2)c1)c1cccs1
  -6.7% | i
CCOCCn1c(CN2CCN(C(c3ccccc3)c3ccccc3)CC2)nc2c1c(=O)n(C)c(=O)n2C
  0.4% | 16.7%
CN1CCN(CCC(=O)Nc2cccc(Br)c2)CC1
  -10.3% | -4.4%
S=C(NCC1CCCO1)Nc1ccc(Nc2ccccc2)cc1 (configuration not stated)
  -3.5% | -9.8%
CCC(C)(CC(=O)O)CC(=O)Nc1cc(C(F)(F)F)cc(C(F)(F)F)c1 (configuration not stated)
  -12.3% | i
COc1ccc(Nc2cc(C)nc3c(C)c(C)ccc23)cc1
  1.2% | -3.4%
CC(=O)N(Cc1cc(=O)[nH]c2ccccc12)c1ccccc1C
  -6.7% | -9.4%
O=C(COc1ccc(Cl)cc1)N1CCCCC1
  -9.6% | -18.7%
CC1=C(C(=O)Nc2ccc(F)cc2F)C2(CCCCCC2)OC1=O
  -10.3% | -3.0%
Cc1ccc(NC(=O)c2nn(C)c3c2CS(=O)(=O)c2ccccc2-3)c(Cl)c1
  -22.8% | -20.0%
O=C(Nc1ncn[nH]1)c1ccccc1Br
  -9.5% | -13.2%
O=C(NN=Cc1cc([N+](=O)[O-])ccc1O)c1cccc2ccccc12
  u | u
Cc1c(-c2nc(-c3ccc(C(F)(F)F)cc3)no2)n(C)oc1=O
  -8.6% | -3.4%
CC(C)(C)C(=O)Nc1cccc(-c2nc3ccccc3[nH]2)c1
  -20.3% | x
COc1cc(NC(=O)CSc2nc(C)cs2)cc(OC)c1
  -14.7% | -1.8%
Cc1ccc(Cl)cc1NC(=S)N(CCN(C)C)Cc1cccs1
  -24.8% | -14.2%
COc1ccc(Cc2c(O)nc(SCC(=O)NC34CC5CC(CC(C5)C3)C4)[nH]c2=O)cc1
  2.8% | 6.0%
O=C1CC(c2ccc(Cl)cc2)n2nc(NS(=O)(=O)c3ccc(F)cc3)nc2N1 (configuration not stated)
  -18.5% | x
C=CS(=O)(=O)c1ccc(Oc2ccc(S(=O)(=O)C=C)cc2)cc1
  10µM* | 7.08µM*
CCNC(=S)N1CCc2cc(OC)c(OC)cc2C1COc1ccc(OC)cc1 (configuration not stated)
  -7.5% | -10.5%
COc1ccc(S(=O)(=O)N2CCOC2CNC(=O)C(=O)NCCCN2CCOCC2)cc1 (configuration not stated)
  -4.1% | i
CCOC(=S)SCC(=O)Nc1nc(-c2ccccc2)cs1
  -27.6% | -18.6%
CC(=O)N1CCc2c(sc3c2c(=O)n(-c2cccc(Cl)c2)c(=O)n3Cc2ccc(F)cc2Cl)C1
  0.4% | -20.0%
Cc1cccc(OCC(=O)O/N=C(\N)Cc2cccs2)c1
  -18.4% | i
Cc1ccc(NC(=O)Cn2c(=O)n(Cc3nc(C)no3)c(=O)c3cc4c(cc32)OCO4)cc1
  -5.5% | 6.5%
COc1ccc(/C=N/n2c(N)nc3ccccc32)cc1OC
  u | x
Cn1cccc1CNCC(O)c1ccccc1 (configuration not stated)
  -7.8% | i
Cn1c(SCC(=O)N/N=C/C=C/c2ccco2)nc2ccccc21
  -6.3% | -26.7%
CCN1CC2=C(OC(N)=C(C#N)C2c2ccccc2)/C(=C\c2ccccc2)C1 (configuration not stated)
  -13.2% | x
COc1ccc(-n2nnnc2C(C2CC2)N2CCC(n3c(=O)[nH]c4ccccc43)CC2)cc1 (configuration not stated)
  -14.9% | 5.7%
O=C1CC(NS(=O)(=O)c2cccnc2)CN1c1ccccc1 (configuration not stated)
  2.8% | -8.9%
COc1ccc(CCNC(=O)C(=O)NCC2CCCO2)cc1 (configuration not stated)
  u | x
Cc1ccccc1OCC(=O)NNC(=S)NC(=O)c1ccccc1[N+](=O)[O-]
  -14.0% | i
CC(C)(C)NC(=O)C(c1ccc(C(F)(F)F)cc1)n1c(=O)c(-c2ccco2)nc2ccccc21 (configuration not stated)
  3.9% | -24.6%
CCOC(=O)N1CCN(C(=O)/C=C/c2cccc([N+](=O)[O-])c2)CC1
  -0.5% | 0.9%
